# NPYLR7 ag – activates Aedes aegypti NPYLR7 receptor | AID 1259423 | activation, % at 10 µM | HEK293T NPYLR7/Galpha15, GCaMP6s calcium fluorescence | actives 0.15% (n = 270,000); in the data active = activation above about 40%;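 note: 0% = vehicle and 100% = reference agonist at the receptor; some compounds past the cut are filed as inactive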
# NPYLR7 ag max-min – second read-out of NPYLR7 ag, no call of its own (marks repeat the call); activation, %; measured here: Max-Min RFU normalised activation; some inactives read as strong as hits;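 span of the calcium signal over five minutes; 0% = vehicle and 100% = native peptide agonist; compound fluorescence can raise it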
# Numbers without * were called inactive; & = joins results of further samples. Some of the compounds tested (hit frequency here may not be typical).
# Sequence of screens – NPYLR7 ag | NPYLR7 ag max-min
> O=C(CN(C(=O)C1CCCCC1)C1CC1)N(CCc1c[nH]c2ccccc12)Cc1ccc(C(F)(F)F)cc1
    20.5 | 28.5
> N#CC1(C#N)OC(C#N)(C#N)C2SC(I)=CC21 (stereo not drawn)
    7.1 | 9.5
> CCCCc1ncc(-c2nccn2Cc2ccncc2)[nH]1
    2.0 | -0.7
> Cc1ccc(-n2nc(C)cc2NS(=O)(=O)c2ccc(Cl)c(C#N)c2)nn1
    5.2 | 3.9
> CCSc1nnc(NC(=O)c2ccc3[nH]c(C)c(C)c3c2)s1
    11.5 | 5.5
> Cn1c(=O)c2cc(N)cnc2n(C)c1=O
    2.2 | -3.0
> NC(=O)c1ccc(NC(=O)c2cc3ccccc3oc2=O)cc1
    -2.7 | -6.4
> CC(C)c1nccn1Cc1cc(C(=O)NCC2OCCc3ccccc32)n[nH]1 (stereo not drawn)
    -1.2 | -4.8
> O=C(NCc1ccc2c(c1)OCO2)C1COC2(CCN(C(=O)C3CCC3)CC2)N1C(=O)c1ccc(F)cc1 (stereo not drawn)
    18.2 | 31.6
> CC(=O)Nc1ccc(Cl)c(C(=O)NCCCc2csc(N)n2)c1
    18.8 | 3.9
> CC(C#N)(NC(=O)COc1cccc(Cl)c1Cl)C1CC1 (stereo not drawn)
    6.1 | 3.6
> COc1cc(-c2coc3c(C(=O)NCc4ccccc4)cccc23)ccc1O
    -15.4 | -14.3
> O=C(Cc1cccc2ccccc12)N1CCc2ccccc21
    -6.5 | 12.9
> COc1ccccc1CC(=O)NC(C)(C#N)COc1ccc(F)c(F)c1 (stereo not drawn)
    0.2 | -2.0
> Cc1noc(C)c1CCC(=O)Nc1ccc(CN2CCC(C)CC2)cc1
    -3.0 | -4.5
> O=C(NCC1CCCO1)c1cccnc1N1CCN(S(=O)(=O)c2ccc(Cl)s2)CC1 (stereo not drawn)
    -6.5 | -8.7
> CC1(C(=O)NCc2ccccn2)CCN1C(=O)Cc1ccc(Cl)cc1Cl (stereo not drawn)
    -1.8 | -2.6
> Cc1ccc(NC(=O)NC2CCN(c3ccccc3C(=O)NCCc3cccs3)CC2)cc1
    0.2 | 11.1
> Cc1ccccc1C(=O)NC1CCN(c2ccccc2C(=O)NCc2ccncc2)CC1
    -0.4 | 8.7
> CC(C)NC(=O)NC(=O)CN1CCN(Cc2cccs2)CC1
    6.3 | 11.3

# One compound at a time, as listed above. Screens in order: NPYLR7 ag	NPYLR7 ag max-min
# CC1(C(=O)NCc2ccccn2)CCN1C(=O)Cc1ccc(Cl)cc1Cl (stereo not drawn) across the screens: -1.8	-2.6
# CCCCc1ncc(-c2nccn2Cc2ccncc2)[nH]1 across the screens: 2.0	-0.7
# N#CC1(C#N)OC(C#N)(C#N)C2SC(I)=CC21 (stereo not drawn) across the screens: 7.1	9.5

# More results
# Sequence of screens – NPYLR7 ag | NPYLR7 ag max-min
> COc1ccc(CCN(Cc2ccc(C)o2)C(=O)CN(CCN2CCCCC2)C(=O)C2CC2)cc1OC
    -4.5 | -14.8
> COc1ccc(OC)c(C(=O)c2cc3ccccc3o2)c1
    -4.3 | -8.3
> COC(=O)CCCC(=O)N1CCCC(C(=O)c2ccc(-c3ccccc3)c(F)c2)C1 (stereo not drawn)
    16.8 | 7.9
> O=C(NC1CCCCC1)C1CCC(=O)N(C2CC2)C1 (stereo not drawn)
    3.7 | 1.2
> CC1(Cc2ccccc2Cl)C(=O)Nc2cccc(Cl)c21 (stereo not drawn)
    2.4 | 5.6
> Cc1ccccc1Oc1cc(N2CCN(C(=O)c3ccc(Cl)c(Cl)c3)C(C)C2)ncn1 (stereo not drawn)
    7.8 | 12.0
> Cc1nc2sc(C)c(C)n2c(=O)c1NC(=O)COc1ccc(Cl)cc1Cl
    7.5 | 5.6
> Cc1ccc(C)c(-c2csc(NC(=O)Cc3c(C)nn(C)c3C)n2)c1
    1.7 | 7.9
> O=S(=O)(c1ccc(Cl)cc1)N1CCC(N2CCCCC2)CC1
    6.3 | 5.9
> Cc1ccccc1NC(=O)Cn1c(=O)n(Cc2ccccc2)c(=O)c2oc3ccccc3c21
    11.3 | 14.4
> C=CCn1c(SCC(=O)C(C#N)=C(C)N)nnc1C1CCCCC1
    9.9 | 14.5
> N#Cc1ccccc1-c1ccc(COc2coc(CN3CCN(C(=O)c4cccnc4Cl)CC3)cc2=O)cc1
    2.5 | -3.7
> O=C(CSc1nnc(-c2ccco2)o1)N(C1CCCCC1)C1CCS(=O)(=O)C1 (stereo not drawn)
    -2.2 | -4.4
> Cc1nccn1CC1(CNC(=O)c2ccc3cccc(F)c3n2)CC1
    1.8 | -0.4
> CCOC(=O)C(=NNc1cc(Cl)ccc1Cl)N(CC)CC
    -4.6 | -9.1
> COc1ccc(-c2nc3cc(C)ccn3c2Nc2c(C)cccc2C)cc1
    3.0 | 11.4
> CN1CCN(C(=O)CCC2CCCN(Cc3sc4ccccc4c3Cl)C2)CC1 (stereo not drawn)
    1.8 | -4.7
> Brc1ccc(OCc2ccccn2)c(C2NCCc3c2[nH]c2ccccc32)c1 (stereo not drawn)
    2.7 | 1.7
> O=C(CSc1nc(=O)n(CC2CCCO2)c2c1CCCC2)Nc1ccc(F)c([N+](=O)[O-])c1 (stereo not drawn)
    -6.3 | -9.2
> Cc1cccc(Cn2c(C)c(C)c(C)c2C(=O)Nc2ccc(F)cc2)c1
    13.3 | 24.1

# Copied from above for reference:
# Sequence of screens – NPYLR7 ag | NPYLR7 ag max-min
> COc1ccc(CCN(Cc2ccc(C)o2)C(=O)CN(CCN2CCCCC2)C(=O)C2CC2)cc1OC
    -4.5 | -14.8
> COc1ccc(OC)c(C(=O)c2cc3ccccc3o2)c1
    -4.3 | -8.3
> COC(=O)CCCC(=O)N1CCCC(C(=O)c2ccc(-c3ccccc3)c(F)c2)C1 (stereo not drawn)
    16.8 | 7.9
> O=C(NC1CCCCC1)C1CCC(=O)N(C2CC2)C1 (stereo not drawn)
    3.7 | 1.2
> CC1(Cc2ccccc2Cl)C(=O)Nc2cccc(Cl)c21 (stereo not drawn)
    2.4 | 5.6
> Cc1ccccc1Oc1cc(N2CCN(C(=O)c3ccc(Cl)c(Cl)c3)C(C)C2)ncn1 (stereo not drawn)
    7.8 | 12.0
> Cc1nc2sc(C)c(C)n2c(=O)c1NC(=O)COc1ccc(Cl)cc1Cl
    7.5 | 5.6
> Cc1ccc(C)c(-c2csc(NC(=O)Cc3c(C)nn(C)c3C)n2)c1
    1.7 | 7.9
> O=S(=O)(c1ccc(Cl)cc1)N1CCC(N2CCCCC2)CC1
    6.3 | 5.9
> Cc1ccccc1NC(=O)Cn1c(=O)n(Cc2ccccc2)c(=O)c2oc3ccccc3c21
    11.3 | 14.4
> C=CCn1c(SCC(=O)C(C#N)=C(C)N)nnc1C1CCCCC1
    9.9 | 14.5
> N#Cc1ccccc1-c1ccc(COc2coc(CN3CCN(C(=O)c4cccnc4Cl)CC3)cc2=O)cc1
    2.5 | -3.7
> O=C(CSc1nnc(-c2ccco2)o1)N(C1CCCCC1)C1CCS(=O)(=O)C1 (stereo not drawn)
    -2.2 | -4.4
> Cc1nccn1CC1(CNC(=O)c2ccc3cccc(F)c3n2)CC1
    1.8 | -0.4
> CCOC(=O)C(=NNc1cc(Cl)ccc1Cl)N(CC)CC
    -4.6 | -9.1
> COc1ccc(-c2nc3cc(C)ccn3c2Nc2c(C)cccc2C)cc1
    3.0 | 11.4

# Other records follow.
# Sequence of screens – NPYLR7 ag | NPYLR7 ag max-min
> CN(C)c1ccc(CNC(=O)C2=COC3=NC(=O)NCCN23)cc1
    4.3 | -0.2
> C=C(C)Cn1c(=O)c2c(nc3n(-c4ccccc4Cl)c(C)cn23)n(C)c1=O
    -1.6 | 3.9
> Cc1ccccc1Cn1c(=O)c2c(nc3n(CC(C)C)c(C)c(C)n23)n(C)c1=O
    8.2 | 8.6
> CCOc1ccc(C(C)(C)C)cc1S(=O)(=O)NCc1ccc2c(c1)OCO2
    1.3 | -4.4
> Cn1c(=O)n(C)c2cc(S(=O)(=O)N3CCOCC3)ccc21
    4.8 | 3.1
> O=C(NCCC1=CCCCC1)c1cncn1-c1cccc(-c2cccc(OC(F)(F)F)c2)c1
    23.9 | 30.8
> C=C(C)C(=O)OC[C@@H]1CCC[N@+]2(C)CCCCC12 (stereo partly drawn)
    6.7 | 6.0
> O=C(c1ccoc1)N(Cc1ccccc1)CC1(O)CCCC1
    1.1&5.0 | -1.4&2.3
> Cc1c(C)c2c(c(C)c1O)CCC(C)(C(=O)N(C)C1CCC3(CC1)OCC(C)(C)CO3)O2 (stereo not drawn)
    -7.5 | -9.8
> CCCCCc1ccc(C(=O)N2CCCN(c3nc(Cc4cccc(OC)c4)ns3)CC2)cc1
    18.9 | 23.3
> Cc1nc(C)c(-c2ccc(SCc3ccc(F)cc3)nn2)s1
    -22.3 | -24.0
> CC1CC(C)CN(c2nc3c(c(=O)[nH]c(=O)n3C)n2CCCSc2nc3ccccc3s2)C1 (stereo not drawn)
    11.9 | 10.6
> COc1ccc(-c2nnc(NC(=O)C(NS(=O)(=O)c3ccc(OC)cc3)C(C)C)s2)cc1 (stereo not drawn)
    14.6 | 0.0
> COC(=O)COc1ccccc1[C@@H]1C[C@H](NC(C)=O)C[C@H](C(C)(C)C)O1
    1.3 | -4.5
> CC(=O)N1CCN(C(=O)c2csc(COc3ccc(Cl)cc3)n2)CC1
    11.2 | 3.9
> CCCc1nnc(NC(=O)NCC(c2ccco2)N2CCCC2)s1 (stereo not drawn)
    2.0 | 0.1
> CC(C)c1nccc(CN2CCOC(CCc3ccccc3)C2)n1 (stereo not drawn)
    6.1 | 4.7
> Cc1[nH]cnc1-c1nccn1CCCc1ccccc1
    2.3 | 2.5
> Cc1ccc(CN(CCN2CCOCC2)CC(C)(C)O)s1
    4.8 | 10.1
> COc1ccc(-c2cnc(-c3cccc(CNC(=O)c4cc(OC)cc(OC)c4)c3)[nH]2)cc1
    12.9 | 20.7
> O=C(c1cc2c(=O)n3ccccc3nc2s1)N1CCC2(CC1)OCCO2
    7.4 | 0.8
> Cc1ccc(-c2nc(C)c(C(C)NC(=O)N3CCC3)s2)cc1 (stereo not drawn)
    0.2&-4.5 | -1.7&-4.1
> C#CCN1C(=O)[C@]2(C)[C@H](c3ccccc31)[C@@H](C(N)=O)CN2C(=O)C1CCCC1
    1.5 | 5.5
> COC(=O)c1ccc(COn2c(=O)c(C)[n+]([O-])c3ccccc32)cc1
    0.0 | -5.8

# Screens: PubChem, Fisher Drug Discovery Resource Center
